Screens: PubChem, Southern Research Institute
Mtb growth = Mycobacterium tuberculosis H37Rv growth inhibition, cell based, confirmatory dose response (AID 1949) | most inactive calls were filed without a number and no value below 0 was filed | one-dose inhibition, % at 10 µg/mL; IC50 in µg/mL for titrated hits | actives 1.6% (n = 100,000);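 active means confirmed in a dose series; inconclusive means about 50% or more but not retested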;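 further: bacteria grown 7 days with compound before Alamar blue readout; 0% = untreated bacteria and 100% = reference antibiotic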
* marks the source's active call; other numbers are inactive results; i = inactive; ? = inconclusive. This is a subset. The share of hits here may be higher or lower than overall.

item	compound	Mtb growth
1	O=C1Nc2ccc(S(=O)(=O)NCc3ccccn3)c3cccc1c23	i
2	COC(=O)CC1C(=O)NCCN1C(=S)NC(=O)c1sc2ccccc2c1Cl (centres undefined)	i
3	C=CCOc1c(Cl)cc(C2C(C(=O)OC)=C(C)NC3=C2C(=O)c2ccccc23)cc1OCC (centres undefined)	0.9%
4	CCC(C)(C)c1ccc2c(C(N)=O)csc2c1	2.7%
5	CN(C)c1ccc(/C=C(/C#N)c2nc3c(s2)CCCC3)cc1	i
6	CCCCC(=O)NC(c1cccs1)c1cc([N+](=O)[O-])c2cccnc2c1O (centres undefined)	i
7	Cc1ccccc1C(=O)NN1C(=O)CSC1=S	i
8	CCOc1cc(S(=O)(=O)N2CCN(c3ccc(F)cc3)CC2)ccc1Cl	i
9	COc1ccc(N2CCN(C(=O)c3cc(C)on3)CC2)cc1	i
10	CC(SCc1ccccc1)C(=O)Nc1ccc(F)c(Cl)c1 (centres undefined)	2.5%
11	CS(=O)(=O)N(Cc1cc2ccccc2[nH]c1=O)CC1CCCO1 (centres undefined)	i
12	CCC(C)c1ccccc1OCCn1ccnc1 (centres undefined)	i
13	CCOC(=O)C1CCN(C(=O)Nc2ccc3nccnc3c2)CC1	i
14	O=C(Nc1ccc(S(=O)(=O)Nc2ccccc2Cl)cc1)c1ccco1	i
15	Cc1ccc(OCC(=O)Nc2c(C)cccc2C(C)C)c(C)c1	i
16	O=C(NNC(=O)C(F)(F)F)c1ccc(NC(=O)c2ccccc2)cc1	i
17	COc1ccc(S(=O)(=O)N(CC(=O)NCc2cccnc2)c2ccc(Cl)cc2)cc1OC	i
18	CCc1ccccc1NS(=O)(=O)c1ccc(SC)cc1	i
19	O=C(Nc1ccc(Cl)c(Cl)c1)Nc1cnccn1	i
20	S=C(Nc1ccc2c(c1)OCCO2)Nc1ccc2c(c1)OCO2	i
21	COc1ccc(CNS(=O)(=O)c2cc([N+](=O)[O-])ccc2C)cc1	i
22	O=C(COc1ccc(S(=O)(=O)N2CCCC2)cc1)NCCC1=CCCCC1	i
23	CCOc1ccccc1NC(=O)Nc1ccccc1C(C)(C)C	4.2%
24	COc1ccc(-c2ccc(-c3noc(-c4ccco4)n3)c(OC)n2)cc1	i
25	COc1ccccc1S(=O)(=O)n1cc(-c2ccc(F)cc2)c(N)n1	i
26	CC(C)C(NC(=O)c1cccs1)C(=O)Nc1ccc(Cl)cc1 (centres undefined)	i
27	O=C(Nc1ccccc1Cl)c1ccccc1Nc1nc(-c2ccc([N+](=O)[O-])cc2)cs1	i
28	Cc1c(NC(=S)NC(=O)c2ccc(F)cc2)cccc1C(=O)O	i
29	COc1ccc(C)cc1NC(=O)C(C)N(c1ccc(Oc2ccccc2)cc1)S(C)(=O)=O (centres undefined)	i
30	C=CCn1c(SCC(=O)c2ccc(OC)cc2)nc2sc(C)c(C)c2c1=O	i
31	COc1ccccc1N1CCN(C(=O)COc2cc(C)c(Br)c(C)c2)CC1	35.3%
32	CCOC(=O)C1CCCN(C(=O)c2ccccc2Oc2ccccc2)C1 (centres undefined)	0.2%
33	COc1ccccc1NC(=O)NCc1ccncc1	i
34	CC(C)n1cc(C(=O)O)c(=O)c2ccccc21	7.4%
35	Cc1ccc(C(=O)NC(=S)Nc2ccccc2N2CCOCC2)cc1C	4.6%
36	C=CCN(c1ccc(C(=O)Nc2cccnc2)cc1)S(C)(=O)=O	i
37	COc1ccc(CNS(=O)(=O)c2ccc(SC)cc2)cc1	8.4%
38	Cc1cccc(C)c1OCc1nnc(SCC(=O)c2ccc(Br)cc2)o1	i
39	CC(C)c1ccc(OCC(=O)Nc2ccccc2NC(=O)COc2ccc(C(C)C)cc2)cc1	i
40	Cc1ccc(Cl)cc1NC(=O)CSc1nnc(-c2ccc(N)cc2)n1C	i
41	CC(C)Oc1ccc(C(=O)Nc2ccc(C(=O)N3CCOCC3)cc2)cc1	i
42	COc1ccc(OC)c(C2NC(=O)NC(C)=C2C(N)=O)c1 (centres undefined)	i
43	NC(=O)c1ccc(N2CCNCC2)c([N+](=O)[O-])c1	i
44	COC(=O)C1=CN(Cc2cccs2)C=C(C(=O)OC)C1c1cc(Cl)c(O)c(OC)c1	i
45	CCc1ccccc1NC(=O)COc1ccc2c(C)cc(=O)oc2c1	i
46	CSc1ccc(S(=O)(=O)N(CC(=O)NCc2ccco2)c2ccc(C)cc2)cc1	i
47	CN(c1ccc(C(=O)NCc2cccnc2)cc1)S(C)(=O)=O	i
48	COc1ccc(NC(=O)CCN2CCN(C/C=C/c3ccccc3)CC2)cc1	i
49	CCN(CC)S(=O)(=O)c1ccc(NC(=O)Cn2cnc3ccccc3c2=O)cc1	i
50	Cc1cccc(C)c1NC(=O)CSc1nnnn1-c1c(C)cccc1C	i
51	Cc1cc(C(=O)Nc2c(C)n(C)n(-c3ccccc3)c2=O)c(C)o1	i
52	COc1ccc(NC(=O)c2cccnc2C(=O)O)c(OC)c1	i
53	CCOC(=O)c1ccc(NC(=S)NCCc2ccccc2)cc1	i
54	CC(=O)Nc1nc2nc(C)cc(C)n2n1	i
55	CCOC(=O)c1c(-c2ccccc2)csc1NC(=O)c1ccc(N2C(=O)CCC2=O)cc1	i
56	Cc1cc(NC(=O)C(=O)NC(C)c2ccccc2)ccc1Br (centres undefined)	i
57	CN1CCN(CCCCOc2ccccc2-c2ccccc2)CC1	i
58	Cc1ccc(NC(=O)c2cc3c(n(-c4ccccc4)c2=O)CC(C)(C)CC3=O)cc1C	i
59	COc1ccc(-c2nnc(SCC(=O)Nc3c(F)cc(F)cc3Br)n2-c2ccc(Cl)cc2)cc1	i
60	O=C(NC1CCCCC1)c1cc([N+](=O)[O-])ccc1N1CCOCC1	i

(next part)
item	compound	Mtb growth
61	COc1ccc(NC(=O)COc2c(C)cc(Br)cc2C)c([N+](=O)[O-])c1	i
62	CC1(C)CC(=O)c2cnc(NCc3ccccc3)nc2C1	0.7%
63	N=C1C(c2nc3ccccc3s2)=C(O)CN1Cc1ccco1	i
64	COc1ccc(CCN2C(=O)CC(N3CCN(C/C=C\c4ccccc4)CC3)C2=O)cc1OC (centres undefined)	4.8%
65	CCOc1ccccc1CN1CCC(N2CCN(c3ccccc3)CC2)CC1	0.3%
66	CS(=O)(=O)N(CCc1ccccc1)CC(=O)N1CCCC1	i
67	O=C(Nc1ccc2[nH]c(=O)[nH]c2c1)c1sc2ccccc2c1Cl	0.2%
68	NS(=O)(=O)c1ccc(NC(=O)c2sc3cc(Cl)ccc3c2Cl)cc1	1.8%
69	O=C(NCc1ccco1)c1cc2cc(Cl)cc(Cl)c2oc1=O	i
70	C=CC[C@H]1CC(C)=C[C@H](CC=C)N1CC(O)C(F)(F)C(F)(F)C(F)(F)F (some centres undefined)	i
71	O=S(=O)(NCc1ccco1)c1ccc(F)c(Cl)c1	i
72	COc1ccc(C2(C(=O)Nc3nncs3)CCCC2)cc1	i
73	Cc1onc(-c2ccccc2)c1C(=O)NNC(=S)NC(=O)c1ccc(Cl)cc1	45.8%
74	N#Cc1ccc(NC(=O)c2ccc(I)cc2)cc1	16.9%
75	Cc1cc(I)ccc1NC(=O)c1ccc(CN(c2ccccc2)S(C)(=O)=O)cc1	i
76	C/C(O)=c1/sc2cc(C)nc(=N)n2c1=O	2.2%
77	Cc1cc(Br)ccc1OCCOCCN1CCOCC1	i
78	COC(=O)c1cc(C(=O)OC)cc(-c2ccc(C=O)o2)c1	i
79	CS(=O)(=O)N(CC(=O)N1CCN(c2ccccc2)CC1)C1CCCCC1	i
80	CC1=C(C(=O)N(C)C)C(c2ccccc2)NC(=S)N1 (centres undefined)	i
81	Cc1cc(C)c(C)c(S(=O)(=O)NCC2CCCO2)c1C (centres undefined)	i
82	CCOC(=O)N1CCN(CCN2CCn3c2nc2ccccc23)CC1	6.0%
83	O=C(CCCN1C(=O)c2ccccc2C1=O)N1CCN(c2ccccn2)CC1	i
84	CN1C(=O)c2ccc(C(=O)NCc3ccc(Cl)cc3)cc2C1=O	i
85	Cc1cccc(NC(=O)c2ccccc2OC(C)C(=O)NC(c2ccccc2)c2ccccc2)c1C (centres undefined)	17.2%
86	O=C(Cc1ccccc1)Nc1ccc(NC(=O)c2c(F)c(F)c(F)c(F)c2F)cc1	i
87	N#C/C(=C/c1cn[nH]c1-c1ccccc1)C(N)=S	i
88	CN(CC(=O)Nc1ccc(F)cc1)S(=O)(=O)c1ccccc1	i
89	CCCS(=O)(=O)N1CCN(Cc2ccccc2OCC)CC1	0.1%
90	CCOc1ccc(C(=O)Nc2ncn[nH]2)cc1OCC	i
91	COc1ccc(Cl)cc1NC(=O)c1ccc(-c2ccc(Cl)cc2)o1	i
92	CCCOc1c(Br)cc(C(=O)NCC)cc1OC	i
93	S=C(NCc1ccc(Cl)cc1)NCc1cn(-c2ccccc2)nc1-c1ccccc1	15.1%
94	CCN(CC)C(=O)CSc1nnc(-c2ccccn2)n1C	1.1%
95	O=C(CSc1nnc(-c2cccc(Cl)c2)n1-c1ccccc1)c1ccccc1	i
96	O=C(O)CSc1nnc(C2CC2)n1-c1ccccc1	i
97	Cc1cccc2c(C(=O)O)cc(-c3ccc(I)cc3)nc12	0.3%
98	COC(=O)c1c(NC(C)=O)sc2c1C(C(=O)OC)CC2 (centres undefined)	1.6%
99	CCCCn1c(=O)cc(O)c2ccccc21	i
100	CCOc1ccccc1N(CC(=O)Nc1cccc(C)c1)S(=O)(=O)c1ccc(Cl)cc1	i
101	CCCc1cc(=O)oc2cc(OCC(=O)NC3CCCC3)c(Cl)cc12	6.5%
102	O=C1c2cccc3cccc(c23)C(=O)N1CC1CCN(C(=O)C23CC4CC(CC(C4)C2)C3)CC1	i
103	CCOC(=O)c1ccc2[nH]c(C)c(CN3CCN(C)CC3)c(=O)c2c1	i
104	CCOc1ccc(-c2cc(C(N)=O)c3ccccc3n2)cc1	i
105	COC(=O)c1sccc1NC(=O)NC1CCCCC1	i
106	COc1cc(OC)cc(-c2n[nH]c(=S)n2-c2ccc(F)cc2)c1	i
107	Cc1cccc(NC(=O)CSCc2ccccc2Br)c1C	4.5%
108	CC(=O)N(Cc1ccc2c(c1)OCO2)C1CC(=O)N(CCc2ccccc2)C1=O (centres undefined)	i
109	Cc1nc2cc(Cl)c(Cl)cc2n1CCCO	i
110	O=C(NCCCN1CCCC1=O)c1cc(F)c(F)cc1Cl	i
111	CCC1(C)Cc2ccccc2-c2nc(SC)n(Cc3ccccc3)c(=O)c21 (centres undefined)	3.5%
112	O=C(Nc1nc(-c2ccc(S(=O)(=O)N3CCCC3)cc2)cs1)c1ccc(Cl)cc1Cl	1.3%
113	COCCNC(=O)c1cc(C)cc(C)c1	1.4%
114	COc1ccccc1N1CCN(CC(O)COc2ccccc2F)CC1 (centres undefined)	i
115	Cc1ccc(NC(=O)C2CC(=O)NC(N3CCOCC3)=N2)cc1 (centres undefined)	i
116	COc1ccccc1N/C(N)=N/c1nc(C(F)(F)F)cc(C(F)(F)F)n1	i
117	O=Cc1ccc(Sc2nnc(-c3ccccc3)o2)o1	3.39µg/mL*
118	CCN(CC)c1ccc(NC(=O)c2ccc(Br)o2)c(C)c1	8.4%
119	CC(C)Oc1ccc(C(CC(=O)O)c2ccccc2)cc1 (centres undefined)	1.8%
120	COCc1cc(C)nc(SCC#N)c1C#N	i

Pulled by structure from the entries so far, 2 records:
item	compound	Mtb growth
108	CC(=O)N(Cc1ccc2c(c1)OCO2)C1CC(=O)N(CCc2ccccc2)C1=O (centres undefined)	i
112	O=C(Nc1nc(-c2ccc(S(=O)(=O)N3CCCC3)cc2)cs1)c1ccc(Cl)cc1Cl	1.3%

Back to the main list; the 7 compounds before the break are reprinted first.
item	compound	Mtb growth
114	COc1ccccc1N1CCN(CC(O)COc2ccccc2F)CC1 (centres undefined)	i
115	Cc1ccc(NC(=O)C2CC(=O)NC(N3CCOCC3)=N2)cc1 (centres undefined)	i
116	COc1ccccc1N/C(N)=N/c1nc(C(F)(F)F)cc(C(F)(F)F)n1	i
117	O=Cc1ccc(Sc2nnc(-c3ccccc3)o2)o1	3.39µg/mL*
118	CCN(CC)c1ccc(NC(=O)c2ccc(Br)o2)c(C)c1	8.4%
119	CC(C)Oc1ccc(C(CC(=O)O)c2ccccc2)cc1 (centres undefined)	1.8%
120	COCc1cc(C)nc(SCC#N)c1C#N	i
121	O=C(CSCc1c(Cl)cccc1Cl)Nc1cccc(F)c1	i
122	Cc1cc(C)n2nc3nc(N4CCOCC4)nc(-c4ccccc4)c3c2n1	1.2%
123	CCCc1noc2c1C(c1cc(Br)ccc1F)C(C#N)=C(N)N2 (centres undefined)	0.6%
124	O=C(c1cccc(F)c1)N1CCN(c2cccc(C(F)(F)F)c2)CC1	6.0%
125	Cc1ccccc1Cn1cc(C)c(=O)[nH]c1=O	i
126	CN(C)c1ccc(/C=C/c2nc(N)nc(-c3ccccc3O)n2)cc1	0.4%
127	Cc1ccc(NC(=O)c2cc(NC(=O)CCC(=O)O)ccc2N2CCCCC2)cc1	i
128	CCOc1ccccc1NC(=O)CC(C)=O	0.5%
129	CCOc1cc(S(=O)(=O)N2CCC(C(N)=O)CC2)ccc1Cl	i
130	CC1CCc2c(sc(NC(=O)c3ccccc3F)c2C(=O)N2CCN(C)CC2)C1 (centres undefined)	i
131	COc1ccc(-c2cc(OC(=O)c3ccccc3F)c3c(C)oc(C)c3c(=O)c2)cc1	4.5%
132	O=C(NCCCc1ccccc1)c1ccc(F)cc1	i
133	CN(C)c1ccc(CNc2nc3ccccc3s2)cc1	2.7%
134	Cc1ccc(C(=O)c2cc3c(cc2N)OCCO3)cc1	2.0%
135	Cc1cc(C)c(C)c(OCCN2CC(C)OC(C)C2)c1 (centres undefined)	4.1%
136	CCOC(=O)c1ccc(NC(=O)CC2C(=O)N(c3ccc(Cl)cc3)C(=S)N2Cc2cccnc2)cc1 (centres undefined)	i
137	CC(Oc1ccc(C(C)(C)C)cc1)C(=O)NC1CCCC1 (centres undefined)	i
138	O=S(Nc1ccc2c(c1)OCCO2)C12CC3CC(CC(C3)C1)C2 (centres undefined)	0.3%
139	CC1=C(C(=O)OCc2ccccc2)C(c2cccc(O)c2)C2=C(CC(c3cccs3)CC2=O)N1 (centres undefined)	?
140	Cc1cc(Cl)c(OCCCNCCO)c(Br)c1	i
